Compound activity deposited in PubChem BioAssay by Johns Hopkins Ion Channel Center.
KCNQ2 inh: KCNQ2 potassium channel inhibitors, primary screen, cell-based, CHO-K1, FluxOR thallium flux, B-score (AID 2156); 20 min; active compounds read low; only compounds with negative scores are shown here; some inactives read as strong as hits; 310,000 tested, 1.1% active; Potassium voltage-gated channel subfamily KQT member 2 (Rattus norvegicus), O88943; B-score at 10 µM;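 active = fluorescence ratio B-score at most minus 3 library SDs, with starting brightness B-score within 2 library SDs, cut at about -5.5 in these data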
Target sequence (O88943 whole entry, looked up): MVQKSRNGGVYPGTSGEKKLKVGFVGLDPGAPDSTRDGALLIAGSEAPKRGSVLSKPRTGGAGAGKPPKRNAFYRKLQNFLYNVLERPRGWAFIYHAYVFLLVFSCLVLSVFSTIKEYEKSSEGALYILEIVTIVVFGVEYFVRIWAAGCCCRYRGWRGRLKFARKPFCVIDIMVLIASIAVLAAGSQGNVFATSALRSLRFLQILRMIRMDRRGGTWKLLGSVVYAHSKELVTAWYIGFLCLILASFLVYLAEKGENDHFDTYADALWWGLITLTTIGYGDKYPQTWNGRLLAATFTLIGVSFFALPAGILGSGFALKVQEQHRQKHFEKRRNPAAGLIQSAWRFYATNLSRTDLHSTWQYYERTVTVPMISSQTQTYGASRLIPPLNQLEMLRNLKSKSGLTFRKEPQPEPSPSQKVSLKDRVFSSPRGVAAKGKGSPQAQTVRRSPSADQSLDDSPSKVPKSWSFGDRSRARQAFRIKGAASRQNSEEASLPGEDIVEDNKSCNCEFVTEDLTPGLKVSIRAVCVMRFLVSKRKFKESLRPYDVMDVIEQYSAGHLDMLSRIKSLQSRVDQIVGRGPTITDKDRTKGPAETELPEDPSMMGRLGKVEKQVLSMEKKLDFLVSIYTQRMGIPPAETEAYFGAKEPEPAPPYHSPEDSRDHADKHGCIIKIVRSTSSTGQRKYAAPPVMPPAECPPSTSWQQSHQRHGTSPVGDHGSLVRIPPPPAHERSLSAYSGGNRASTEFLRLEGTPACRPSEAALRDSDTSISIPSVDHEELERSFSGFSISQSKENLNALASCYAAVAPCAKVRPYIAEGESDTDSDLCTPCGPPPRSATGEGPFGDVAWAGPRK
KCNQ2 inh baseline: second read-out of KCNQ2 inh, no call of its own (marks repeat the call); B-score; measured here: initial fluorescence intensity artifact check;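 brightness before thallium and not channel activity; 0 = typical well and far values either way flag optical interference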
* marks the source's active call; other numbers are inactive results; i = inactive. Only part of the results is shown. The share of hits here may be higher or lower than overall.

| KCNQ2 inh | KCNQ2 inh baseline | mol |
| --- | --- | --- |
| -8.9* | 2* | O=C(COc1ccc2ccccc2c1)N1c2ccccc2Sc2ccccc21 |
| i | -1.1 | O=C(c1ccc2ccccc2c1)N1CCN(c2ccccn2)CC1 |
| i | -1.6 | COC(=O)C1Cc2ccccc2CN1S(=O)(=O)c1ccc(C)cc1 (stereo unspecified) |
| i | 0.07 | CCOc1ccc(NC(=O)CC2SC(=O)N(c3ccccc3)C2=O)cc1 (stereo unspecified) |
| i | 0.81 | Cc1cccc(N(CC(=O)NC2CCCC2)C(=O)c2nsc(Cl)c2Cl)c1C |
| i | 2.3 | Cc1ccc(C(=O)N/C(=C/c2ccccc2F)C(=O)NCCCn2ccnc2)cc1 |
| i | -0.23 | CC(=C/c1ccccc1)/C=N/NC(=O)c1cc(C)oc1C |
| i | 4.3 | CC(C)(NO)/C(=N/O)c1cccs1 |
| i | 2.7 | CCCOc1ccc(N2C(=O)CC(N3CCN(c4ccc([N+](=O)[O-])cc4)CC3)C2=O)cc1 (stereo unspecified) |
| i | -1.9 | COc1ccccc1-n1nnnc1SC(C)C(=O)NC1CCCC1 (stereo unspecified) |
| i | 0.6 | Cc1ccc(OCC(=O)NCCS(=O)(=O)N2CCN(c3ccccc3)CC2)cc1 |
| i | -0.25 | CCc1nnc(NC(=O)c2cc(S(=O)(=O)N3CCCCC3)ccc2N2CCOCC2)s1 |
| i | -2 | CCN(CC)S(=O)(=O)c1cc(NC(=O)Cn2cnc3ccccc3c2=O)ccc1C |
| i | 0.42 | CCCC(=O)NC(NC(=S)Nc1ccc(S(N)(=O)=O)cc1)C(Cl)(Cl)Cl (stereo unspecified) |
| i | -0.79 | COC(=O)CNC(=O)COC(=O)c1ccc(Cl)nc1 |
| i | -0.17 | CCCOc1ccc(N2C(=O)C/C(=C\c3ccccc3)C2=O)cc1 |
| i | 1.1 | c1ccc(CSc2nnc(-c3cccs3)o2)cc1 |
| i | -1.4 | CC1=NN(c2ccccc2)C(=O)/C1=C\c1cc(C)n(-c2cccnc2)c1C |
| i | 0.49 | CCN(CC)c1ccc(C(=O)OCC(=O)Nc2cccc(S(=O)(=O)NC3=NCCCCC3)c2)cc1 |
| i | 0.69 | CCN(CC)C(=O)c1ccc(NS(=O)(=O)c2ccc3[nH]c(=O)[nH]c3c2)cc1 |
| i | 1.1 | COCCCNC(=O)c1c(F)c(F)c(F)c(F)c1F |
| i | 0.17 | CCOC(=O)c1nn(-c2ccccc2C)c(=O)c2c(N)scc12 |
| i | 0.08 | O=C(O)CCCNC(=O)c1cncc(Br)c1 |
| i | -2.1 | O=C(CCNC(=O)N1CC(=O)Nc2ccccc21)Nc1ccc(F)c(Cl)c1 |
| i | 2.2 | COc1cccc(CNC(=O)CCCC(=O)NC(C)CCc2ccccc2)c1 (stereo unspecified) |
| i | 2 | CCOC(=O)C1=C(C)NC2=C(C(=O)c3ccccc32)C1c1cccc2ccccc12 (stereo unspecified) |
| i | 1.5 | Clc1ccc(C2=NN=C3COc4ccccc4N3C2)cc1 |
| i | -0.76 | Cc1csc(NC(=O)CCC(=O)N(CC(=O)NC2CCCC2)Cc2ccco2)n1 |
| i | -1 | CCOC(=O)c1c(=O)n(O)c2ccc(C)cc2[n+]1[O-] |
| i | -0.63 | CCN(CC(=O)NCc1ccc(Cl)cc1)C(=O)/C=C/c1ccccc1 |
| i | -0.47 | S=C(N/N=C/c1cccs1)NC1CC2CCC1C2 (stereo unspecified) |
| i | -0.87 | CCNC(=O)NC(=O)C(C)OC(=O)C1CCN(S(=O)(=O)c2ccc(C)c(C)c2)CC1 (stereo unspecified) |
| i | 1.1 | CCOC(=O)C/C(C)=N/NC(=O)CN(c1ccc(Br)cc1)S(=O)(=O)c1ccccc1 |
| i | -0.01 | CC(=O)Nc1cc(C(=O)N2CCc3ccccc3C2)ccc1Sc1ccc(C)cc1 |
| i | 1.4 | O=C1C(c2ccccc2)C(c2ccccc2)NC(c2ccccc2)C1c1ccccc1 (stereo unspecified) |
| i | -0.57 | COc1ccc(CNCCC(c2ccc(OC(C)C)cc2)c2ccccc2OC)cc1OC (stereo unspecified) |
| i | 0.6 | Cc1ccc(S(=O)(=O)/C(C#N)=C/c2c(N3CCN(Cc4ccccc4)CC3)nc3ccccn3c2=O)cc1 |
| i | 1.3 | O=C(CSc1ccc(-c2ccc(Br)cc2)nn1)NC1CCCC1 |
| i | 0.32 | Cc1cc(C)nc(NS(=O)(=O)c2ccc(NC(=O)CSc3nc4ccccc4[nH]3)cc2)n1 |
| i | -0.87 | O=S(=O)(NCC1OCCc2ccccc21)c1ccc(S(=O)(=O)N2CCOCC2)cc1 (stereo unspecified) |
| i | 1.8 | CN(Cc1cnn(C)c1)C(=O)C1CCC(=O)N(Cc2cccc(C(F)(F)F)c2)C1 (stereo unspecified) |
| i | -1.6 | CCn1c(C(=O)Nc2ccsc2C(=O)OC)cc2sc(Cl)cc21 |
| i | 1 | O=C(CCc1nc2ccccc2c(=O)[nH]1)OCCOc1ccc(Cl)cc1 |
| i | -0.02 | c1ccc2c(-c3nc(-c4ccncc4)no3)cccc2c1 |
| i | -0.7 | CCN(CC)CCN(C(=O)c1ccc2c(c1)CCCC2)c1nc2ccc(OC)cc2s1 |
| i | 0.08 | O=C1Cc2ccccc2Sc2c(OCCN3CCCCC3)cccc21 |
| i | -0.13 | COc1ccc(CN(C(=O)CCC(=O)Nc2cc(C)on2)C(C(=O)NC(C)(C)C)c2cccc(OC)c2OC)cc1 (stereo unspecified) |
| i | -0.06 | CC(C)C[C@H](NC(=O)c1nc[nH]c1C(=O)N[C@@H](CC(C)C)C(=O)OC(C)(C)C)C(=O)OC(C)(C)C |
| i | -1.2 | COc1ccc(OC)c(C(c2nnnn2C2CCCC2)N2CCN(c3ccccc3)CC2)c1 (stereo unspecified) |
| i | 0.62 | Cc1cccc(-n2ncc3c(N4CCc5ccccc54)ncnc32)c1 |

Remaining list, next part
| KCNQ2 inh | KCNQ2 inh baseline | mol |
| --- | --- | --- |
| i | 1.3 | Cc1cc(-c2c(C(=O)N3CCOCC3)c(C)nn2-c2ccccc2)no1 |
| i | 0.9 | CCCS(=O)(=O)c1c(S(=O)(=O)CCC)c2cnccn2c1C(=O)c1ccc(CC)cc1 |
| i | 1.4 | CC1CSc2n(-c3cccc(C(F)(F)F)c3)cc(-c3ccccc3)[n+]21 (stereo unspecified) |
| i | 1.6 | Cc1nnsc1C(=O)NNc1ccc(Cl)cc1 |
| i | -1.8 | COC(=O)c1ccc(CSc2nc3ccccc3c(=O)n2-c2cccc(OC)c2)o1 |
| -7.5* | -2.2* | CCCCOC(=O)Cn1c(=O)c2c(nc(Br)n2Cc2ccccc2)n(C)c1=O |
| i | -0.15 | COc1ccccc1N1Cc2ccccc2C1 |
| i | 1.6 | Cc1ccc(-c2ccc(=O)n(CC(=O)N3CCN(c4cc(Cl)ccc4C)CC3)n2)cc1 |
| i | 0.89 | O=C(NCC1CCCN(C(=O)c2cscn2)C1)c1ccc(-c2ccccc2)cc1 (stereo unspecified) |
| i | -1.2 | NS(=O)(=O)c1ccc(CCNC(=O)CSc2nc3ccsc3c(=O)n2CCCCCC(=O)O)cc1 |
| i | -0.72 | Cc1cc(C)c(C)c(S(=O)(=O)NCC(=O)NCc2ccco2)c1C |
| i | 0.33 | CCN(CC)C(=O)c1c([N+](=O)[O-])c(C(C)(C)C)nn1C |
| i | -0.3 | CCOc1ccccc1NC(=O)Nc1ccon1 |
| i | 1.2 | COc1cc(OC)cc(C(=O)NNC(=O)c2ccccn2)c1 |
| i | -0.63 | COC(=O)c1sccc1N/N=C/c1cccc(Oc2ccccc2)c1 |
| i | -0.98 | N#CC1=C(N)NC(SCC(=O)c2ccc(Cl)cc2)=C(C#N)C12CCCC2 |
| -6.2* | -0.78* | C=C1CCN([C@@H](Cc2ccccc2)C(=O)NCc2ccc(Cl)c(Cl)c2)S(=O)(=O)c2ccccc21 |
| i | -2.1 | CC1(C)Cc2cccc(OCC(=O)N3CCN(S(=O)(=O)c4ccccc4)CC3)c2O1 |
| i | 0.42 | CN(C)CCNc1nc2sc3c(c2c(=O)n1Cc1ccccc1)CCCCC3 |
| i | 1.6 | Cc1ccc(S(=O)(=O)Cc2ccc(C(=O)N3CCN(c4cccc(C)c4C)CC3)o2)cc1 |
| i | 1 | COCCN1C(=O)C(=O)/C(=C(/O)c2ccc(OC(C)C)cc2)C1c1cccnc1 (stereo unspecified) |
| i | 2 | CCOc1ccc(/C(C)=N/NC(=O)c2nnn(-c3nonc3N)c2-c2cccs2)cc1 |
| i | 1.9 | O=C(O)Cc1ccc(NC(=S)Nc2cccc(Cl)c2Cl)cc1 |
| i | 1 | Cc1c(NC(=O)/C=C/C(=O)O)cccc1[N+](=O)[O-] |
| i | -0.28 | Cc1ccc(S(=O)(=O)CCSc2n[nH]c(=O)n2-c2ccccc2)cc1 |
| i | -0.69 | CCN(CC)CCC(c1cc(OC)c(OC)c(OC)c1)c1c(OC)cc(OC)c2c(-c3ccccc3)cc(=O)oc12 (stereo unspecified) |
| i | -0.51 | COc1ccc(NC(=O)Nc2ccc(C(=O)N3CCOCC3)cc2)cc1OC |
| i | -0.46 | CCOC(=O)COc1nc(C)c(Br)c(OC)n1 |
| i | -0.02 | CCCNc1nc(C)cc(-c2cc(-c3ccc(Cl)cc3)on2)n1 |
| i | 0.9 | CN(N)c1ccc2c(C(F)(F)F)cc(C(F)(F)F)nc2n1 |
| i | 0.7 | Cc1nnc(SCc2cccc(Oc3ccccc3)c2)n1N |
| i | -2.4 | Cc1ccc(S(=O)(=O)CCC(=O)Nc2nnc(-c3ccco3)o2)cc1 |
| i | 1.1 | O=C(Nc1nnc(-c2cccc(F)c2)s1)Nc1ccccc1F |
| i | 1.1 | NC(=S)NC(c1ccccc1)c1ccncc1 (stereo unspecified) |
| i | -2.5 | Cc1cc(C)cc(C(=O)Oc2cc(C)[nH]c(=O)c2[N+](=O)[O-])c1 |
| i | 0.02 | Brc1ccc(OCCOCCN2CCOCC2)cc1 |
| i | 0.06 | Nn1c(Cc2cccc3ccccc23)nnc1SCC(=O)NC1CCS(=O)(=O)C1 (stereo unspecified) |
| i | -1.5 | COCCN(CCOC)C(=O)C1CCCN(S(=O)(=O)c2ccc(NC(=O)OC)cc2)C1 (stereo unspecified) |
| i | -0.36 | COc1ccc(CCN(C)C(=O)CSc2nnnn2C)cc1OC |
| i | -0.19 | COc1ccccc1C1CC(=O)NC(C)=C1C(=O)OCC1CCCO1 (stereo unspecified) |
| i | 0.97 | CC(C)(C)OC(=O)N1CCC(C(=O)N[C@H](C(=O)O)c2ccccc2)(c2ccccc2)CC1 |
| i | 1.2 | COc1ccc(-c2oc(NC(=O)CSc3nncn3C)c(C#N)c2-c2ccc(OC)cc2)cc1 |
| i | 0.61 | Cc1ccc(NC(=O)CSc2nnc(-c3ccncc3)n2C)cc1C |
| i | 0.05 | CC(=O)NCCNC(=O)CCNC(=O)c1ccc(Cl)cc1 |
| i | 1 | C=CCNC(=O)c1onc(CSc2cccc(OCC)c2)c1C(=O)O |
| i | 0.73 | O=C(COc1ccc(S(=O)(=O)N2CCCC2)cc1Cl)N1CCN(c2ccccc2)CC1 |
| i | -0.26 | CCc1ccccc1N(CC(=O)N1CCCCC1)S(=O)(=O)c1ccccc1 |
| i | 0.55 | Cc1cccc(N(CC(=O)N2CCOCC2)S(C)(=O)=O)c1C |
| i | 0.01 | Cc1ccc(S(=O)(=O)N(C)c2ccc(C(=O)NCC(c3cccs3)N3CCOCC3)cc2)cc1 (stereo unspecified) |
| i | -0.59 | O=C1NCCc2c1[nH]c1ccc([N+](=O)[O-])cc21 |

(list continues)
| KCNQ2 inh | KCNQ2 inh baseline | mol |
| --- | --- | --- |
| i | 0.05 | Cc1c(C#N)c(O)[nH]c(=O)c1N=Nc1ccc(Br)cc1C(=O)O |
| -6.8* | -2* | CSc1nc(Cl)c(Cc2ccc(OCC(C)C)cc2)c(N2CCOCC2)n1 |
| i | 1.2 | COC(=O)CN(C(=S)Nc1ccc(F)cc1)C1CC(=O)N(c2ccccc2)C1=O (stereo unspecified) |
| i | 0.01 | CCOC(=O)C1CCN(Cc2nc3ccc([N+](=O)[O-])cc3c(=O)n2-c2ccc(OC)cc2OC)CC1 |
| i | 1.3 | Cc1cccc(N2CCN(C(c3ccccc3)c3nnnn3C(C)(C)C)CC2)c1C (stereo unspecified) |
| -8* | -1.6* | COc1ccc(-c2n[nH]c(C)c2-c2cnn(-c3ccccc3)c2)c(O)c1 |
| i | 0.44 | COc1ccc(/C=C/C(=O)NCCC(=O)N2CCCN(C)CC2)cc1 |
| i | -0.04 | CCCCN1CC(COc2ccccc2)OC1=O (stereo unspecified) |
| i | -0.04 | CCCSc1nnc(Cn2c(=O)sc3ccccc32)n1-c1ccccc1 |
| -5.8* | -0.65* | CCC(=O)N(CCC1(c2ccccc2OC)CCOC(C(C)C)C1)Cc1ccco1 (stereo unspecified) |
